# KCNQ2 pot = enhances the rat KCNQ2 potassium channel; O88943; CHO-K1 KCNQ2, FluxOR thallium flux fluorescence; hits give high values; B-score at 10 µM; 0.54% of 310,000 active; AID 2239;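 active means fluorescence ratio B-score at least 3 SD of library B-scores, with initial fluorescence B-score within 3 SD, cut at about 5.3 in these data; same plate scores as AID 2156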;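 further: B-score of peak minus minimum over baseline fluorescence ratio after K+ and Tl+ stimulus; positive B-score means potentiation of KCNQ2 with more thallium influx and brighter signal; only the inactives scoring about 0 or higher are listed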
# Target sequence (O88943 whole entry, looked up): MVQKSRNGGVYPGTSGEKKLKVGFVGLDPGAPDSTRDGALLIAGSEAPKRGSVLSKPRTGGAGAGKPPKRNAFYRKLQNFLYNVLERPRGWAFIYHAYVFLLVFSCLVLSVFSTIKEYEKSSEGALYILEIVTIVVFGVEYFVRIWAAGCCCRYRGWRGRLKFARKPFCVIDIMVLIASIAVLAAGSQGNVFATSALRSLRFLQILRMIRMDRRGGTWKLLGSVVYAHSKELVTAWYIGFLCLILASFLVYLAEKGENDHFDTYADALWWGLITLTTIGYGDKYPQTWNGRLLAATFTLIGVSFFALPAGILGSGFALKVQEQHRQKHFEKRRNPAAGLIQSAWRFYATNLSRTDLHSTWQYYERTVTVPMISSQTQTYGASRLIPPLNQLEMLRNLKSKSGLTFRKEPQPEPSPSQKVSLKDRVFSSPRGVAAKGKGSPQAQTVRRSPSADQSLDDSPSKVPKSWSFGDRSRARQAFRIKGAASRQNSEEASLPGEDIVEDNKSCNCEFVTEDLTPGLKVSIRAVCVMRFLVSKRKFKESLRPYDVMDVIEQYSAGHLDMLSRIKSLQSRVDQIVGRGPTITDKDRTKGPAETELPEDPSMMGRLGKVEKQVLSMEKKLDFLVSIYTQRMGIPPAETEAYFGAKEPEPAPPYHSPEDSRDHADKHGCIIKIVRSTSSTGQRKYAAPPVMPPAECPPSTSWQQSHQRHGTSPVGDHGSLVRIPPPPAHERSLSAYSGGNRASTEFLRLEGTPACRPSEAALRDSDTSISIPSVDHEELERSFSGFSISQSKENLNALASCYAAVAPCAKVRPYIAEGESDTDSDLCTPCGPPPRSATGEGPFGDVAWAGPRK
# KCNQ2 pot baseline = recorded beside KCNQ2 pot, whose call it bears; B-score; compound at 10 µM; measured here: initial fluorescence intensity artifact check;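 brightness before thallium and not channel activity; 0 = typical well and far values either way flag optical interference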
# * hit, by the source's call. Not all compounds are listed; count on the stated rates, not on these rows.
KCNQ2 pot	KCNQ2 pot baseline	mol
1.4	0.58	CC(C)=CCN1CCN(Cc2cc3ccccc3[nH]2)CC1CCO (configuration not stated)
1	-1.2	CC(=O)Nc1ccc(NC(=O)C2CC(=O)N(c3cccc(C)c3C)C2)cc1 (configuration not stated)
0.05	1.4	OCCCNC(=S)Nc1ccc(Br)cc1Cl
2.8	-1.6	CCc1c(C)nc2ncnn2c1NCCc1ccccc1
3.1	-1.5	Cc1ccc(C(=O)NC(=S)N(C)Cc2ccccc2)cc1
1.2	0.88	Cc1csc(NC(=O)CSc2[nH]c(=O)ncc2C)n1
0.28	0.06	O=C(Cc1ccccc1)NNC(=O)c1cnccn1
0.13	-1.5	CN(CC(=O)Nc1ccc(F)cc1)C(=O)CSc1nc2ncc(Cl)cc2[nH]1
0.62	-1	O=C(Nc1ccc(N2C(=O)C3C4C=CC(C4)C3C2=O)cc1)Nc1nnc(C(F)(F)F)s1 (configuration not stated)
2	1.9	COc1ccccc1-n1cnnc1SCC(=O)Nc1ccccc1
0.89	1	NCCCC[C@H](NC(=O)C1CCNCC1)c1nnc([C@@H](N)Cc2ccc(O)cc2)o1
0.66	0.43	CCc1cccc(C)c1N(C(=O)Cn1c(COC)nc2ccccc21)C(C)COC (configuration not stated)
0.83	-0.41	Cc1ccc2c(c1)c1nnc(SCC(=O)N3CCN(c4ccc(F)cc4)CC3)nc1n2CC(=O)O
1.9	-0.47	Cc1ccc(CNC(=O)COC(=O)c2cnc(C)cn2)cc1
0.57	0.24	CCc1noc(C)c1C(=O)N1CCCC1
1.3	-0.76	CCCCCc1nnc(NC(=O)Cc2cccs2)s1
0.97	-0.89	CCCN1Cc2cccc(C(=O)NCc3ccccc3)c2C1=O
0.16	-0.31	CCO/C=C1/C(=O)N(Cc2ccccc2)C(=O)c2ccccc21
0.8	-0.04	COc1c2occc2c(OC)c2c(=O)cc(C)oc12
0.05	-0.95	Cc1cc(Cn2ccnc2)c(C)c([N+](=O)[O-])c1Cn1ccnc1
1.7	0.88	CCC(c1nnnn1Cc1cccs1)N1CCN(C(=O)c2ccco2)CC1 (configuration not stated)
0.42	-0.06	CCOC(=O)N1CCN(c2c(NCCCN(CC)Cc3ccccc3)c(=O)c2=O)CC1
0.4	0.12	CC1CC(C)CN(CCCSc2ccccc2)C1 (configuration not stated)
1.3	-1	CCN(CC)S(=O)(=O)c1ccc(/C(O)=C2/C(=O)C(=O)N(CCOC)C2c2ccccc2)cc1 (configuration not stated)
0.3	0.24	CCOC(=O)Cc1nc2cc(Cl)ccc2o1
2.7	1	O=S1(=O)CCN(OCc2ccc(F)cc2Cl)CC1
1.8	-2.5	NC(=O)C1(N2CCCCC2)CCN(C(=O)CSc2nc3ccccc3s2)CC1
0.95	0.11	CCCCCNC(=O)CC1Nc2c3ccccc3nc(=S)n2C1=O (configuration not stated)
0.09	1.9	COc1ccccc1-c1noc(-c2ccccc2)n1
2.2	-2	CC(=O)NC(Cc1ccccc1)C(=O)NC1CCN(C(=O)c2ccc([N+](=O)[O-])cc2)CC1 (configuration not stated)
1.3	-0.01	CC(=O)N1CC(C)Sc2ccc(S(=O)(=O)NCc3ccc(F)cc3)cc21 (configuration not stated)
0.3	-1.2	CCCCOc1ccc(C(=O)NN2CCOCC2)cc1
1.6	0.16	CN(C)S(=O)(=O)c1ccc2c(c1)nc(CCC(=O)Nc1ccc(N3CCOCC3)cc1)n2C
1.8	-0.13	CC(=O)Nc1ccc(NC(=O)CCS(=O)(=O)c2ccc3c(c2)oc(=O)n3C)cc1
0.23	-0.02	CCOc1ccccc1NC(=O)NCc1ccccc1
0.01	1	Cc1cc(C)c(C)c(S(=O)(=O)NCc2ccc(C(=O)N3CCN(C)CC3)cc2)c1C
0.74	-1.2	COc1ccc(C)cc1N(CC(=O)NC1CCCC1)C(=O)CCC(=O)Nc1cc(C)on1
0.65	0.28	Cc1ccc(N2CCN(S(=O)(=O)N3CCCCC3)CC2)cc1C
0.41	0.02	O=C(NCCc1ccc(O)cc1)c1ccc(Cl)cc1
0.99	0.09	O=C(Cc1ccccc1)NNS(=O)(=O)c1ccc([N+](=O)[O-])cc1
0.77	-2	COc1ccc(OC)c(NS(=O)(=O)c2ccc(Cl)s2)c1
1	-0.96	O=C(CCOc1ccccc1)NCC(c1ccco1)N1CCCCC1 (configuration not stated)
1.1	0.49	Cc1ccc(N(C(=O)c2sc(C)nc2C)C(C(=O)NC(C)(C)C)c2ccncc2)cc1 (configuration not stated)
0.49	-0.97	CN1CCN(CCn2c(=S)[nH]c3ccccc3c2=O)CC1
0.14	-1.2	Cc1c(C(=O)NCC2CCCO2)sc2nc(-c3ccc(F)cc3)cn12 (configuration not stated)
0.98	-0.71	CCCN(C(=O)CSCc1ccccc1C)c1c(N)n(Cc2ccccc2)c(=O)[nH]c1=O
0.7	-1.6	C=CCNC(=O)C(=O)NN=C1CCN(C)CC1
0.15	-0.6	COc1ccc(CCNC(=O)CSc2nc(O)c(CCC(C)C)c(=O)[nH]2)cc1OC
1.2	0.42	Cc1sc(-c2c(C#N)c(N)nc3c2CCCCCC3)cc1[N+](=O)[O-]
1.2	-1.4	C=CCn1c(C(CC)CC)nc2ccccc21
0.49	-1.5	CCc1ccc(NC(=O)CC2C(=O)N(c3cccc(OC)c3)C(=O)N2CCOC)cc1 (configuration not stated)
0.63	-1.2	Cc1ccccc1-n1c(SCC(=O)Nc2ccccc2Cl)nc2n[nH]c(C)c2c1=N
0.13	-0.1	CCCCCCOc1ccc(/C=N/NC(=O)C2CC2)cc1
0.68	-0.58	COc1ccccc1N1CCN(C(=O)Oc2ccccc2)CC1
0.22	0.6	Cc1noc(NS(=O)(=O)c2ccc(NC(=O)CSc3nc4c(cc3C#N)CCCCC4)cc2)c1C
0.51	-0.86	CCOc1ccc(OCC)c(NC(=O)C2CCN(c3nn4c(=O)cc(C)nc4s3)CC2)c1

# Next part.
KCNQ2 pot	KCNQ2 pot baseline	mol
1.8	-0.35	O=C(NCc1ccco1)c1ccc(NC(=O)C2COc3ccccc3O2)cc1 (configuration not stated)
0.42	-1.1	Cc1cc(=O)[nH]c(Nc2cccc(Cl)c2C)n1
0.1	-1.2	CN(C)CCNC(=O)/C(=C/c1ccc(-c2cccc([N+](=O)[O-])c2)o1)NC(=O)c1ccccc1
0.05	-0.82	CC(=O)c1cccc(NC(=O)C2C3C=CC(C4CC34)C2C(=O)O)c1 (configuration not stated)
0.03	0.04	CCCc1cc(NCCCN(C)C)n2c(nc3ccccc32)c1C#N
0.87	0.58	CN(C(=O)CSc1nnc(Nc2ccccc2)s1)C1CCS(=O)(=O)C1 (configuration not stated)
1.2	0.36	COc1ccc(CC(=O)Nc2ccc(/C(C)=N/NC(=O)c3cccc([N+](=O)[O-])c3)cc2)cc1
1.4	-1.4	Cc1cccc(C(=O)Nc2nnc(S(=O)(=O)N3CCC(C)CC3)s2)c1
1	1.8	COC(=O)c1ccccc1NC(=O)CNc1cc(OC)c(OC)cc1C
9.6*	-1.1*	CSCCC(NS(=O)(=O)c1cccs1)C(=O)NCc1ccc(C)cc1 (configuration not stated)
0.67	-1.6	CC(=O)/C(=N\Nc1ccccc1Cl)Sc1nnc(-c2ccccc2)n1-c1ccccc1
0.37	-0.85	COc1ccc(-c2cc(-c3c(O)c(OC)c4occc4c3OC)[nH]n2)cc1
0.04	0.83	COCCC(=O)Nc1c(-c2ccccc2)c2cc(Br)ccc2[nH]c1=O
1.1	-0.83	CCc1nc(C)ccc1OCC(=O)N(CC)CC
0.28	0.31	Cn1nc(C(=O)Nc2ccccc2Cl)cc1C(=O)Nc1ccccc1Cl
2	0.29	COCCCn1[nH]c2c3c(ccc2c1=O)C(=O)c1ccccc1C3=O
0.68	0.15	CC(C)(C)CC(=O)NC(=S)NCc1ccco1
0.65	0.32	COc1ccccc1OCCCC(=O)Nc1ccc(N2CCOCC2)cc1
0.39	-0.4	O=C(CNc1cccc2ccccc12)N/N=C/c1cccc(Oc2ccccc2)c1
0.77	1.4	Oc1cnc2ccccc2c1CN1CCOCC1
0.02	0.85	O=C(Cn1c2c(sc1=O)C1c3ccccc3OCC1CS2)Nc1ccc(Cl)c(Cl)c1 (configuration not stated)
0.06	2	O=[N+]([O-])c1cccc(/C=C/c2ccc3cccc(O)c3n2)c1
0.44	-0.13	CCOc1ccc(N(CC(=O)O)S(=O)(=O)c2cccnc2)cc1
5	-0.24	O=C(COc1nsnc1N1CCOCC1)N/N=C/c1ccccc1O
1.3	-0.48	CC(C)(C)c1ccc(C(=O)NNC(=O)Cc2cccc3ccccc23)cc1
0.77	-1.7	COc1cccc2sc(=NC(=O)CS(=O)(=O)c3ccc(F)cc3)n(C)c12
1.4	-0.12	Nc1[nH]nc2nc(-c3ccccc3)[nH]c(=O)c12
9.4*	1.3*	Cc1cccc(CC(=O)NCC2CCCCC2)c1
2.1	-1.4	O=C(c1cc(F)ccc1F)C1CCCN(C(=O)CCCN2CCCCC2=O)C1 (configuration not stated)
0.21	1.6	CC(C)c1nc(-c2ccccn2)no1
0.62	-0.34	O=c1oc2ccccc2c(O)c1C=Nc1cccnc1
1.3	0.01	Cc1ccc(C(=O)NNC(=O)CSc2nnc(C3CC3)n2C)cc1
0.85	0.08	CC(C)Cn1c(SC(C)C(=O)Nc2ccc3c(c2)OCCO3)nc2ccccc2c1=O (configuration not stated)
0.75	-0.83	CCOc1cccc(CNCCO)c1OCc1ccc(Cl)cc1
1.6	-2.1	COCCCNC(=O)c1cccc2c(=O)c(C)c(-c3ccccc3)oc12
0.64	2.7	CC(C)Cn1c(N)c(C(=O)COC(=O)COc2cccc(C(F)(F)F)c2)c(=O)n(C)c1=O
0.69	-0.05	S=c1nc(-c2ccccc2Cl)n(Cc2cccnc2)c2c1CCCC2
0.6	-0.01	O=C(NC1CCCC1)c1ccc(CS(=O)(=O)c2ccc(Br)cc2)o1
0.57	-1	CC(C)(C)NC(=O)COC(=O)CCC(=O)c1ccc(Cl)cc1
0.69	0.96	C=CCn1c(=O)c2ccccc2n2c(SCC(=O)NC)nnc12
0.23	-1.6	COc1ccc(S(=O)(=O)N2CCOC2CNC(=O)C(=O)NCCCN2CCOCC2)cc1 (configuration not stated)
0.02	2.6	COc1ccc(CNC(=O)C(C)NS(=O)(=O)c2ccc(C)cc2)cc1 (configuration not stated)
0.65	-0.45	CS(=O)(=O)c1ccc(Cl)c(NC(=O)Cc2ccsc2)c1
0.13	0.54	COCCC(=O)N1CCC(Oc2ccc(C(=O)N3C[C@@H]4CCC[C@H]3C4)cc2)CC1
0.91	-0.03	CC(C)(C)c1cc(NS(=O)(=O)c2cccs2)no1
0.01	-1.2	CCOC(=S)SCC(=O)Nc1nc(-c2ccccc2)cs1
0.95	0.04	CCOc1ccc(-c2nc(CSc3nnc(N)s3)cs2)cc1
1.7	0.21	CCCCN(C(=S)Nc1cccc(SC)c1)C1CCN(C(C)=O)CC1
0.3	-0.17	CCOC(=O)N1CCN(C(=O)/C=C/c2cccc([N+](=O)[O-])c2)CC1
2.1	-0.17	COc1ccc(CCNC(=O)C(=O)NCC2CCCO2)cc1 (configuration not stated)
0.25	0.4	Cc1ccccc1OCC(=O)NNC(=S)NC(=O)c1ccccc1[N+](=O)[O-]
0.55	-1.6	Cc1ccc(NCc2ccccc2O)cc1C
0.16	0.76	N=c1ccn(Cc2ccc([N+](=O)[O-])cc2)cc1
0.68	0.03	COc1ccc(Cl)cc1NC(=O)CN1CCN(S(=O)(=O)N2CCOCC2)CC1
0.62	2.2	CC(C)(O)C#Cc1ccc(CN2CCN(C3CCCCC3)C(CCO)C2)s1 (configuration not stated)
0.28	0.99	O=C1c2cccc3cccc(c23)C(=O)N1CCN1CCN(C(=S)Nc2ccc(Cl)cc2)CC1
0.04	0.33	O=S(=O)(NCCN1CCOCC1)c1ccc(Oc2ccccc2Cl)cc1
0.18	3	COc1ccc(C2(C)NC(=O)N(CC(=O)Nc3c(C)n(C)n(-c4ccccc4)c3=O)C2=O)cc1 (configuration not stated)
1.6	-0.83	O=C(Cn1c(=O)oc2ccccc21)NCCc1ccccc1Cl

# Screening results (PubChem BioAssay)
